Screening results from PubChem BioAssay.
CDC25B CDK2 inh = human CDC25B-CDK2/CyclinA binding inhibition; z-score (concentration not given with the values); 94,000 compounds, 0.72% hits; AID 1259370; HTRF CDC25B-CDK2/CyclinA binding, anti-His/anti-Flag; active compounds read high; P30305+P24941;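 also: score is relative to mean and SD of negative controls; strong numbers were not always called active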
HIV TAR-Tat = HIV-1 TAR-Tat binding disruption | 100,000 compounds, 0.6% hits | HIV-1 TAR RNA, Tat peptide displacement FRET; active compounds read high | z-score (no concentration beside the values) | AID 1259389;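 also: score is relative to mean and SD of negative controls; some compounds called inactive have numbers as strong as hits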
* = called active by the depositor; . = no result given.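 The calls were made as follows: active = z-score from 3 up in half or more of its runs; inactive = the rest.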 The order is random; overall some 0.89% were active at least once.

SMILES | CDC25B CDK2 inh | HIV TAR-Tat
CCOc1cc(C2C3=C(CCCC3=O)NC3=C2C(=O)CCC3)cc(Cl)c1O | 15.8* | 0.23
COC(=O)C(Cc1ccccc1)NC(=O)C(N)CC(=O)O (stereo unspecified) | -0.51 | .
CCOc1cc(-c2ccc(OC(=O)c3ccc(OC)cc3)cc2)cc(=O)c2c(C)oc(C)c12 | -1.17 | -0.64
O=C(NCC(c1cccs1)S(=O)(=O)c1ccc(F)cc1)C1CC1 (stereo unspecified) | . | 1.19
O=C1CC(C(=O)NCC2OCCc3ccccc32)C2(CCCCC2)O1 (stereo unspecified) | -0.55 | 0.69
CC(C(=O)O)c1ccc2c(c1)[nH]c1ccc(Cl)cc12 (stereo unspecified) | . | 0.05
COc1ccc(-c2nc3n(n2)C(c2cc(OC)ccc2OC)C2=C(CC(C)(C)CC2=O)N3)cc1 (stereo unspecified) | -1.29 | -0.49
CNS(=O)(=O)c1cc(-c2nnc(Nc3ccc4c(c3)OCO4)c3ccccc23)ccc1C | 3.83 | 0.54
Cc1ccc(OCc2nc3ccc(Cl)cc3[nH]2)cc1C | 0.93 | 1.41
Cc1nn(C)c(C)c1CNC(=O)Nc1ccc(F)cc1 | . | 1.17
Cc1cccc(-c2nc(NCCCN(C)C)c3ccccc3n2)c1 | 0.44 | -0.14
Cc1cc(-c2ccc(S(=O)(=O)N3CCCCC3)s2)on1 | . | -0.5
CC1CCCC(NC(=O)CCCCCn2nnc3ccccc3c2=O)C1C (stereo unspecified) | . | 1.41
Nc1c(C(=O)Nc2ccccc2F)sc2nc(-c3cccs3)cc(C(F)(F)F)c12 | -0.96 | -0.07
CCCCNC(=O)C1=Cc2cc(Br)ccc2OC1 | . | 0.69
O=C(Nc1ccccc1)N1CCn2c1nc1ccccc12 | -0.38 | 1.75
CC1CCN(c2ncc3c(n2)CCN(Cc2ccc(F)cc2)C3)CC1 | . | 0.71
CC(C)N1C(=O)C(Cc2nc3ccccc3c(=O)n2C)c2ccccc21 (stereo unspecified) | -0.85 | 0.03
CCOc1ccc(NS(=O)(=O)c2ccc3oc(=O)c4ncn(C)c4c3c2)cc1 | -1.56 | -0.52
CCC(O)(c1ccc(C)cc1)C(CN1CCOCC1)c1ccc(Cl)cc1 (stereo unspecified) | -0.08 | 1.25
COc1ccc(Br)c(-c2nnc(Cc3ccc(Cl)cc3)o2)c1 | -0.81 | -1.13
CCNc1sc(S(=O)(=O)c2ccccc2)nc1S(=O)(=O)c1ccc(C)cc1 | -1.15 | 1.58
O=C(c1cc(=O)c2ccccc2o1)N(Cc1ccccc1)C1CCS(=O)(=O)C1 (stereo unspecified) | -1.15 | 2.27
O=C(NCc1ccc(Cl)cc1Cl)c1ccc2nnsc2c1 | -1.1 | .
COc1ccc(NCC(O)Cn2c3ccccc3c3ccccc32)cc1 (stereo unspecified) | -0.86 | -0.12
CCCC(=O)Nc1onc2c1CC(C)CC2 (stereo unspecified) | -0.91 | -0.63
COc1ccc(C2=Nc3ccc(Cl)cc3NC(c3cccnc3)=N2)cc1 | -1.71 | 0.41
O=C(CC1C(=O)N(c2cccc(Cl)c2)C(=O)N1Cc1cccs1)Nc1ccccc1 (stereo unspecified) | -1.01 | .
CCCN1CCN(C(=O)c2ccc(CS(=O)c3ccc(Br)cc3)o2)CC1 (stereo unspecified) | . | 0.47
OC1(C(F)(F)F)CC(c2ccc3c(c2)OCCO3)=NN1 (stereo unspecified) | -1.31 | .
O=C(Nc1ccc(F)cc1)c1noc2c1CSc1ccccc1-2 | -0.8 | 1.19
CCCS(=O)(=O)/C(C#N)=C/Nc1ccc2c(c1)OCCO2 | -1.96 | .
Cc1ccc2nc(SCc3nc(-c4ccc(Br)cc4)no3)[nH]c2c1 | 0.12 | 1.8
CCSc1nc2cn(CC)nc2c(=O)n1CCc1ccccc1 | . | 0.25
O=C1CC(c2ccccc2)c2ccc3ccccc3c2N1 (stereo unspecified) | -0.86 | 1.92
O=C(O)CCC1=NN2C=Nc3sc4c(c3C2NC1=O)CCCC4 (stereo unspecified) | -0.34 | 0.19
O=c1cc(CSc2n[nH]c(=O)n2C2CC2)c2ccc(O)cc2o1 | 0.71 | .
CC1(C(=O)NC2CCCCC2)Cn2c(ccc2-c2ccco2)C(=O)N1CCc1ccco1 (stereo unspecified) | -5.32 | 0.33
CCOc1ccccc1NC(=O)Nc1ccc(CC#N)cc1 | -1.67 | .
CN(C)c1ccc(C(CNC(=O)c2ccc3c(c2)OCO3)N2CCc3ccccc32)cc1 (stereo unspecified) | . | -1.35
COC(=O)CSC1=C(C#N)C(c2ccc(Cl)cc2)CC(=O)N1 (stereo unspecified) | 0.12 | -1.69
Cc1n[nH]c(C)c1Cc1cc(C(=O)NC2CC2)sc1N1CCOCC1 | -0.12 | 0.82
COc1ccc(-c2nc(=S)c3c([nH]2)Oc2c(C)ncc(CO)c2C3)cc1 | -0.09 | -0.04
COc1ccc(C(=O)Oc2cc(-c3ccc4c(c3)OCO4)cc(=O)c3c(C)oc(C)c23)cc1 | -0.72 | -0.76
O=C(C1CCC(=O)N1S(=O)(=O)c1ccccc1)N1CCN(c2ccccn2)CC1 (stereo unspecified) | . | 2.1
CC1=C(C(=O)OCc2ccccc2)C(c2coc3ccccc3c2=O)C2=C(CCCC2=O)N1 (stereo unspecified) | . | 1.87
CCOC1=C/C(=C\c2c(N)n3nc(C(F)(F)F)sc3nc2=O)C=CC1=O | -2.78 | .
CCn1c(=O)sc2cc(NC(=O)c3ccco3)ccc21 | 0.08 | 0.73
Cc1ccc(C2c3c(oc4ccccc4c3=O)C(=O)N2c2nnc(C)s2)o1 (stereo unspecified) | -1.26 | .
O=C1C2=C(NC3=C(C(=O)c4ccccc43)C23C(=O)Nc2ccccc23)c2ccccc21 | 12.3* | .
(further entries)
SMILES | CDC25B CDK2 inh | HIV TAR-Tat
CCn1c(=O)oc2cc(NS(=O)(=O)c3ccc(N4CCCC4=O)cc3)ccc21 | . | 0.27
Cc1csc2nc(CSc3nnc(NC(=O)C4CCCCC4)s3)cc(=O)n12 | . | -0.14
CC(C)(C)c1ccc(S(=O)(=O)Nc2ccc3c(c2)COC3=O)cc1 | 1.94 | 0.51
O=C(Nc1ccc(F)c(Cl)c1)N1CCCC(CN2CCc3ccccc3C2)C1 (stereo unspecified) | . | -1.87
CC(=O)Nc1sc2c(c1C(c1ccccn1)N1CCN(C)CC1)CCCC2 (stereo unspecified) | -0.91 | .
CSc1nc(NCCc2ccccc2)c(C#N)c(-c2ccccc2)n1 | -2.55 | 0.43
Nc1nc(-c2nccs2)cc(C(F)(F)F)n1 | -0.08 | .
NS(=O)(=O)c1ccc(NNC(=O)C2CCN(C(=O)OCc3ccccc3)CC2)cc1 | 0.43 | .
Cc1cccc2c(=O)c(NC(=O)NCc3ccco3)c[nH]c12 | -1.94 | 0.54
C=CCn1c(-c2cc(OC)c(OC)c(OC)c2)n[nH]c1=S | -1.12 | .
CN(C)n1cccc1/C=N/NC(=O)c1cccc(C(F)(F)F)c1 | -0.92 | .
COc1ccc(S(=O)(=O)Nc2cccc(-c3ccc(S(C)(=O)=O)nn3)c2)c(OC)c1 | . | -0.45
CC1CC(C)CN(c2nc(N3CCOCC3)nc(N)c2[N+](=O)[O-])C1 (stereo unspecified) | . | 0.98
O=c1ccc(-c2ccc(S(=O)(=O)NCc3cccc(Br)c3)s2)n[nH]1 | . | 14
CCOC(=O)N/N=C/c1ccc(N(C)C)cc1Cl | -1.55 | .
CN(C)c1ccc(-c2nc3n(n2)C(c2ccc(F)cc2)C2=C(CC(C)(C)CC2=O)N3)cc1 (stereo unspecified) | -2.89 | -0.1
CCCn1c(=O)c2sccc2n2c(CCCC(=O)N3CCC(C(=O)OCC)CC3)nnc12 | . | -0.21
CC1=C(c2ccccc2)S(=O)(=O)N=C1N1CCN(c2ccccc2)CC1 | -1.75 | -0.32
CC(=O)c1cccc(N2C(=O)C3CC=CCC3C2=O)c1 (stereo unspecified) | -2.64 | .
Cc1ccc(S(=O)(=O)N2C=Cc3ccccc3C2C#N)cc1 (stereo unspecified) | 0.94 | 0.65
COc1ccc(CNc2cc(-c3ccc(OC)cc3)nc3nncn23)cc1 | -1.78 | -0.48
COC(=O)c1cc2c(cc1NC(=O)c1nc(-c3ccncc3)no1)OCO2 | . | 1.91
N#CC1=C2SCN(Cc3ccco3)CN2C(=O)CC1c1cccc2ccccc12 (stereo unspecified) | -1.51 | 1.62
O=C(Nc1nnc(S(=O)(=O)N2CCc3ccccc32)s1)c1cccs1 | -1.5 | 0.06
O=C(Nc1nnc(-c2cccs2)o1)c1ccc(S(=O)(=O)N2CCOCC2)cc1 | 0.17 | .
Nc1ncnc2c1ncn2[C@@H]1O[C@H](CO)[C@@H](O)[C@H]1O | . | 0.13
Cc1cc(C)n(-c2cc(Nc3ccc(Cl)cc3)ncn2)n1 | . | -0.7
Cc1ccc(-c2nn3c(C)nnc3s2)cc1NC(=O)CC(C)C | -1.33 | -1.28
COc1ccc(-n2c(C)cc(C#N)c2C)cc1 | -1.41 | 1.85
CC(C)CN1C(=O)C(=O)/C(=C(\O)c2ccc(Cl)cc2)C1c1cccc(O)c1 (stereo unspecified) | -1.39 | 0.19

Three of the compounds above, with two lines to a compound:
Results follow in this order: CDC25B CDK2 inh, HIV TAR-Tat
- O=C(Nc1nnc(S(=O)(=O)N2CCc3ccccc32)s1)c1cccs1
  -1.5, 0.06
- O=C(Nc1nnc(-c2cccs2)o1)c1ccc(S(=O)(=O)N2CCOCC2)cc1
  0.17, .
- Nc1ncnc2c1ncn2[C@@H]1O[C@H](CO)[C@@H](O)[C@H]1O
  ., 0.13

More compounds.
SMILES | CDC25B CDK2 inh | HIV TAR-Tat
COC(=O)c1ccc(N2C(=O)C3C4C=CC(CC4)C3C2=O)cc1 (stereo unspecified) | -1.81 | 2.28
O=C(CN1C(=O)CSc2ccc(S(=O)(=O)N3CCCC3)cc21)NC1CCCCC1 | . | 0.88
CC1(C)CC(=O)c2cnc3c(C(=O)NCc4ccccn4)cnn3c2C1 | . | 0.78
CCCn1nc(NS(C)(=O)=O)c2cc3ccccc3nc21 | -2.97 | 0.66
Cc1nn(CCCC(=O)N(C)Cc2ccccc2)c(=O)c2cc3occc3n12 | -1.4 | 2.87
Cc1[nH]c(C)c(S(=O)(=O)N2c3ccccc3CC2C)c1C(=O)N1CCCCC1 (stereo unspecified) | . | 0.12
CC1=C(c2ccccc2)S(=O)(=O)N=C1N1CCCC(C)C1 (stereo unspecified) | 0.09 | 1.02
CCN(Cc1ccccc1)S(=O)(=O)c1cc(-c2ccc(=O)[nH]n2)cc(C)c1C | . | 2.88
C=CC[C@H]1Cc2ccccc2[C@H](CC=C)N1 | 0.48 | 1.5
Cc1c2c(=O)n(-c3nc4ccccc4s3)n(Cc3ccccc3)c2cc(=O)n1Cc1ccco1 | -2.11 | 0.31
O=c1[nH]c(-c2cc(Br)ccc2O)nc2c1Cc1cc(F)ccc1O2 | -0.56 | -0.13
CCCN(CCC)S(=O)(=O)c1ccc(C(=O)N2CCC3c4ccccc4C(=O)N3C2)cc1 (stereo unspecified) | -1.15 | .
O=C(O)c1cnc2ccc(F)cc2c1N1CCOCC1 | -1.56 | 1.67
Cc1cc(C)c(S(=O)(=O)Nc2cccc(N3CCCS3(=O)=O)c2)cc1C | . | -0.29
CCOC(=O)c1c(NC(=O)CC2Sc3ccccc3NC2=O)sc(C)c1C (stereo unspecified) | -3.69 | -0.15
CC(C)N(C1CCCCC1)S(=O)(=O)c1cn(C)cn1 | . | 0.71
CCOC(=O)c1sc(NC(=O)CSc2nc(=O)[nH]nc2C)nc1C | -0.84 | -0.03
CCOC(=O)c1cc(S(=O)(=O)Nc2ccc(F)cc2F)cn1C | -0.27 | -0.2
COc1cc(OC)nc(S(C)(=O)=O)n1 | -2.05 | .
COC(=O)c1cc2occc2n1CC(=O)Nc1cc(Cl)c(OC)cc1OC | -0.97 | -0.93
O=C(O)CSc1nc(-c2ccccc2)nc2c1CCCC2 | -4 | .
N=C1C(c2nc3ccccc3c(=O)[nH]2)=C(O)CN1c1cccc(Cl)c1 | -1.14 | .
Cn1cc(CCCC(=O)N2CCc3ccccc32)c2ccccc21 | . | 2.68
CCN1C(=O)Cc2cc(NS(=O)(=O)c3cc(C)c(C)cc3C)ccc21 | . | 0.66
O=C(Cn1c(=O)n(C2CCCCC2)c(=O)c2ccccc21)N1CCCc2ccccc21 | -0.3 | 0.6
Cc1ccc(C)c(S(=O)(=O)c2c[nH]c3cc(F)c(F)cc3c2=O)c1 | -1.92 | -0.94
C=CCc1ccccc1OCC(O)Cn1cnc2ccccc21 (stereo unspecified) | -2.11 | 0.5

By substructure: the entries above containing an aryl methoxy group.
SMILES | CDC25B CDK2 inh | HIV TAR-Tat
CCOc1cc(-c2ccc(OC(=O)c3ccc(OC)cc3)cc2)cc(=O)c2c(C)oc(C)c12 | -1.17 | -0.64
COc1ccc(-c2nc3n(n2)C(c2cc(OC)ccc2OC)C2=C(CC(C)(C)CC2=O)N3)cc1 (stereo unspecified) | -1.29 | -0.49
COc1ccc(Br)c(-c2nnc(Cc3ccc(Cl)cc3)o2)c1 | -0.81 | -1.13
COc1ccc(NCC(O)Cn2c3ccccc3c3ccccc32)cc1 (stereo unspecified) | -0.86 | -0.12
COc1ccc(C2=Nc3ccc(Cl)cc3NC(c3cccnc3)=N2)cc1 | -1.71 | 0.41
COc1ccc(-c2nc(=S)c3c([nH]2)Oc2c(C)ncc(CO)c2C3)cc1 | -0.09 | -0.04
COc1ccc(C(=O)Oc2cc(-c3ccc4c(c3)OCO4)cc(=O)c3c(C)oc(C)c23)cc1 | -0.72 | -0.76
C=CCn1c(-c2cc(OC)c(OC)c(OC)c2)n[nH]c1=S | -1.12 | .
COc1ccc(S(=O)(=O)Nc2cccc(-c3ccc(S(C)(=O)=O)nn3)c2)c(OC)c1 | . | -0.45
COc1ccc(CNc2cc(-c3ccc(OC)cc3)nc3nncn23)cc1 | -1.78 | -0.48
COc1ccc(-n2c(C)cc(C#N)c2C)cc1 | -1.41 | 1.85
COc1cc(OC)nc(S(C)(=O)=O)n1 | -2.05 | .
COC(=O)c1cc2occc2n1CC(=O)Nc1cc(Cl)c(OC)cc1OC | -0.97 | -0.93
